# High-throughput results from PubChem BioAssay.
# Arbovirus inh: blocks arbovirus infection; arbovirus infection cell-based antiviral screen; actives 0.37% (n = 200,000); inhibition, % at 10 µM;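 active means inhibition from about 30%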;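 further: bluetongue infection of BSR cells; cell survival read as ATP light after 72 h; 0% = infected wells without compound and 100% = uninfected wells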
# Mtb H37Rv: M. tuberculosis H37Rv growth inhibitors, H37Rv strain (AID 1626); M. tuberculosis H37Rv growth inhibition; higher % means a stronger effect; inhibition, % at 10 µM, or IC50 in µM where a hit was titrated; actives 0.95% (n = 220,000);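 active means confirmed in a dose series; inconclusive means inhibition above 80% but not taken into the dose series; inactive means below 80% or under 30% at every dose of the series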;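 further: bacteria incubated seven days before Alamar blue readout; 0% = bacteria only wells and 100% = bacteria with antibiotic wells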
# YopH inh: inhibitors of Yersinia enterocolitica YopH tyrosine phosphatase; fluorescence Ex485/Em525; inhibition, %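 (about 10 µM by stock and volumes)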; actives 0.16% (n = 140,000); AID 898;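 active means inhibition of 50% or more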;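 further: controls were vehicle for no effect and minimum signal wells for full effect; inactives centre near -20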
# RecA intein inh: blocks M. tuberculosis RecA intein splicing; P9WHJ3; cell-free RecA intein splicing, fluorescence; inhibition, %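 (about 9 µM by stock and volumes)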; actives 0.75% (n = 290,000); AID 2221; in the data active means inhibition above about 30%; inconclusive means no clear call, values can overlap the other calls;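 further: 0% = vehicle wells and 100% = reference inhibitor control wells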
# Target sequence (P9WHJ3 whole entry, looked up): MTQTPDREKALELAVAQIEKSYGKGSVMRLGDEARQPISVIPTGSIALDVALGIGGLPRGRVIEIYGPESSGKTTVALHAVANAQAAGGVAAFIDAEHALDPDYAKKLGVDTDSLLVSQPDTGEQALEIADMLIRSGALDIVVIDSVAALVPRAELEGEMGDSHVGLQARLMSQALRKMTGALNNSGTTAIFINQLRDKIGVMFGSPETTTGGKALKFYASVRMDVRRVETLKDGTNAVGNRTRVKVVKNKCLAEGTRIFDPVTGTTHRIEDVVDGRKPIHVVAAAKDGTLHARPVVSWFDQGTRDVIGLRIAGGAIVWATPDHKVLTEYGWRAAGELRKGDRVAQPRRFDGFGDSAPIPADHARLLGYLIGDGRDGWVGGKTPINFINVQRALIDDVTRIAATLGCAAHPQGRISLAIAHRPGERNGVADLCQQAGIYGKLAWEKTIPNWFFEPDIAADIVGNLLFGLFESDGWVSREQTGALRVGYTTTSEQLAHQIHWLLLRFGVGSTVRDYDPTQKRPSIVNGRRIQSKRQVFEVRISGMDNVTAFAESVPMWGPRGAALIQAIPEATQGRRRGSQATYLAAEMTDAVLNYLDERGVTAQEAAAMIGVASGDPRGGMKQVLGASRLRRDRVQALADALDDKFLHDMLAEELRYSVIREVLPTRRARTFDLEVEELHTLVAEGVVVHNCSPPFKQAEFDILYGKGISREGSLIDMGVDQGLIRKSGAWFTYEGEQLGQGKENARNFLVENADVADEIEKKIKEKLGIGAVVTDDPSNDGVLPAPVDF
# Mtb betalactam: beta-lactam sensitization of Mtb H37Rv. inhibition, % at 25 µM. M. tuberculosis H37Rv growth with meropenem, percent inhibition; hits of this screen are not shown here. actives 0.27% (n = 330,000);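 active means about 74% or more and at least 40 points above the plate without the antibiotic, then above 30% in a dose series; inconclusive means first-round hits that could not be retested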;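 further: growth measured after seven days incubation then overnight dye step; 0% = bacteria only wells and 100% = bacteria with antibiotic; twin plates without the antibiotic show which effects depend on it; some results filed as inactive read as strong as hits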
# Arbovirus inh repeat: further read-out of Arbovirus inh, marked with its call; inhibition, %; measured here: 10K subset replicate screen; many hits read low in the repeat;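 first of two repeat runs on a subset; 0% = infected and 100% = uninfected wells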
# Starred values were filed as active, the others as inactive; ? = inconclusive; nt = no result given. These rows are one share of the data; the hit share may differ from the screen's.
SMILES,Arbovirus inh,Mtb H37Rv,YopH inh,RecA intein inh,Mtb betalactam,others
COC(=O)c1cn(NC(=O)C2CCCO2)c(=O)c2ccccc12 (stereo not drawn),-1,3%,-103,0.9,2,Arbovirus inh repeat=4
Cc1ccc(NC2CCCN(C(=O)c3cc4ncccn4n3)C2)cc1C (stereo not drawn),nt,nt,nt,-2.1,-1,
O=C(Nc1ccccc1Cl)N1CCn2c(nc3ccccc32)C1,-9,-5%,-27,2.5,2,
Cc1cc(C)cc(NC(=O)C2CCCC2)c1,-1,-9%,-33,1.3,6,
C=CCNc1nnc(SC2CC(=O)N(c3ccc(OCCC)cc3)C2=O)s1 (stereo not drawn),-4,58%,-26,1.8,12,
O=C(CCCSc1nc2ccccc2[nH]1)NCc1ccco1,6,-8%,-37,-1.5,-3,
CSc1ccc(C2C(C#N)=C(N)Oc3c2ccc(=O)c2c(C)oc(C)c32)cc1 (stereo not drawn),-3,28%,-22,-1.1,?,
CC(/C=N/NC(=O)Cn1cnc2c1c(=O)n(C)c(=O)n2C)=C\c1ccco1,nt,2%,nt,-0.5,-1,
C(=N\Nc1ccccn1)/c1cccnc1,nt,nt,nt,-1.2,4,
COC(=O)c1c(C(=O)OC)c(-c2ccc(C)cc2)n2c1CS(=O)(=O)C2,-5,-6%,-12,-1.9,-9,
CNC(=S)NNC(=O)Cn1ccc(C)n1,1,-5%,-24,-0.3,-4,
Cc1ccc2c(c1)N(CC(=O)NCc1cccs1)C(=O)CO2,3,-10%,-28,0.2,3,
CCOC(=O)CCc1c(C)c(C#N)c2nc3ccccc3n2c1-n1cnc2ccccc21,11,-16%,0,4.0,-6,
O=C(NCCCN1CCCC1=O)C1CCN(S(=O)(=O)N2CCOCC2)CC1,7,-5%,33,-13,nt,
CN1CCc2c(sc(NC(=O)c3ccc(S(=O)(=O)N4CCCC4)cc3)c2C(N)=O)C1,nt,nt,nt,-3.5,-13,
Cc1ccc(-c2noc(CSc3nnnn3C3CCCCC3)n2)cc1,14,7%,-53,-2.2,-2,Arbovirus inh repeat=-7
Nc1nc(SCc2ccc(F)cc2)n[nH]1,nt,nt,nt,11,0,
Cn1c(N)c(C(=O)COC(=O)c2ccc(Cl)c(S(=O)(=O)N3CCCCC3)c2)c(=O)n(C)c1=O,19,7%,-1,-5.5,1,
CC1CN(CCCOc2ccccc2-c2ccccc2)CC(C)O1 (stereo not drawn),0,14%,nt,2.9,-2,
COc1ccc(Cl)cc1-c1n[nH]c(=S)n1Cc1ccccc1,nt,nt,nt,1.3,-7,
O=C(CSc1ccccc1F)NC1CCS(=O)(=O)C1 (stereo not drawn),1,1%,nt,0.4,-2,
CCOC(=O)c1ccc(N=Cc2nc3ccccc3n2C)cc1,-11,13µM*,-25,0.2,5,
O/N=C(\c1ccccc1)c1nccc2ccccc12,nt,nt,nt,6.8,5,
COc1cccc2cc(-c3cc(=O)oc4ccc(OC(=O)N(C)C)cc34)oc12,nt,nt,nt,-1.9,4,
CN(c1cccc(NC(=O)CCSc2ccccc2)c1)S(C)(=O)=O,-6,-1%,-16,-2.5,-2,

# (cont.)
SMILES,Arbovirus inh,Mtb H37Rv,YopH inh,RecA intein inh,Mtb betalactam,others
O=C1CCc2cc(S(=O)(=O)N3CCN(c4cccc(C(F)(F)F)c4)CC3)ccc2N1,3,-2%,-13,0.8,2,
CCOC(=O)N1CCC(NC(=O)C2CCN(S(=O)(=O)c3cccs3)CC2)CC1,2,-1%,-16,0.5,nt,
CCc1ccc(N2C(=O)CC(c3ccc(F)cc3)C3=C2COC3=O)cc1 (stereo not drawn),-2,2%,nt,1.1,-10,
Cc1ccc2c(c1)sc(=NC(=O)c1cccs1)n2C,-8,?,nt,1.4,23,
CN(CCc1ccccn1)C(=O)Nc1cc(Cl)cc(Cl)c1,nt,5%,nt,1.6,-7,
Cc1ccc(C(C)C)c(OCC(=O)NNC(=O)CC2OC(=O)c3ccccc32)c1 (stereo not drawn),nt,nt,nt,-8.4,6,
Cc1ccccc1C(=O)Nn1cnc2ccccc2c1=O,7,0%,nt,2.9,-3,
CCN(CC)CCCN(C(=O)c1ccco1)c1nc(-c2ccc(C)cc2)cs1,-35,3%,nt,1.7,-7,
Cc1ccc(N(CC(=O)NCc2ccco2)C(=O)CCC(=O)Nc2ccccn2)cc1C,-2,4%,-31,-2.3,-14,
Cc1occc1C(=O)N1CCCC(CCC(=O)NCc2ccc(F)c(F)c2)C1 (stereo not drawn),3,5%,nt,4.3,3,
O=C1c2ccccc2C(=O)N1CC1=NCCc2ccccc21,4,-15%,-5,1.7,-12,
O=C(CCNS(=O)(=O)c1ccc(Br)cc1)NCc1ccco1,nt,nt,nt,2.5,-1,
COc1ccc(C(C(=O)NCc2ccccc2)N(Cc2ccco2)C(=O)c2snc(C(N)=O)c2N)cc1OC (stereo not drawn),nt,nt,nt,0.7,5,
CCN(CC)S(=O)(=O)c1ccc(/C=C/C(=O)Nc2ccc(F)c(F)c2F)cc1,-3,7%,-30,-1.8,4,
CN1C(=O)c2oc3ccccc3c(=O)c2C1c1cccnc1 (stereo not drawn),nt,nt,nt,-2.4,-16,
N/C(=N\OC(=O)c1ccccc1F)c1cccc([N+](=O)[O-])c1,nt,nt,nt,2.8,56,
Cc1cccc(NC(=O)C2CCCN(S(=O)(=O)c3cccc4nsnc34)C2)n1 (stereo not drawn),10,-8%,-29,-1.7,-9,
CC(C)n1c(CN2CCN(Cc3ccccc3)CC2)nc2ccccc21,nt,2%,nt,0.5,-6,
CC(=O)COc1ccc(-c2csnn2)cc1,nt,-5%,nt,1.9,-2,
O=C([O-])c1cc(-c2ccccc2)cc(-c2ccccc2)[n+]1Cc1ccccc1,nt,nt,nt,3.5,-1,
O=C(Cn1c(=O)sc2ccccc21)Nc1ccc(O)cc1,0,16%,nt,2.4,-6,
COc1ccc(C(C)=O)cc1Cn1cnc2c(cnn2C)c1=O,nt,-10%,nt,1.3,-1,
Cn1c(=O)c2cc(S(=O)(=O)NC(C(=O)Nc3cccnc3)c3ccccc3)ccc2n(C)c1=O (stereo not drawn),2,-7%,-18,nt,1,Arbovirus inh repeat=2
CC(C)CSc1oc(-c2ccco2)nc1S(=O)(=O)c1ccccc1,nt,6%,nt,6.1,9,
CC(=O)N(C)c1ccc(OCC(O)COc2ccc(N(C)C(C)=O)cc2)cc1,-1,-4%,4,-1.8,-12,

# (continued)
SMILES,Arbovirus inh,Mtb H37Rv,YopH inh,RecA intein inh,Mtb betalactam,others
O=P1(NCc2ccco2)COc2ccccc2OC1,-1,-5%,-48,-1.4,-5,
CCN1CCN(S(=O)(=O)c2cccs2)CC1,3,10%,-9,0.1,-7,
CCOc1ccccc1OCC(=O)Nc1nnc(C)s1,5,-7%,-27,6.1,-5,
O=C(c1cccc(S(=O)(=O)N2CCN(c3ccccc3)CC2)c1)N1CCCCCCC1,nt,nt,nt,3.6,1,
Cc1cc(OCC(=O)NCCN2CCOCC2)c2c(C)c(C)c(=O)oc2c1,nt,nt,nt,-5.2,10,
Cc1ccc(S(=O)(=O)NCC(=O)OCC(=O)c2ccc(Cl)s2)cc1,nt,nt,nt,0.9,1,
CCCCOc1ccc(N(CC(=O)NC(C)(C)C)C(=O)CCC(=O)Nc2nccs2)cc1,nt,nt,nt,-1.0,2,
Cn1cc(/C=C2/SC(=O)N(CC(=O)Nc3ccc4c(c3)OCO4)C2=O)c2ccccc21,-22,6%,-40,0.8,8,
Cc1ccc(S(=O)(=O)NCCN=Cc2ccc(N(C)C)cc2)cc1,nt,nt,nt,0.9,1,
COc1ccc(S(=O)(=O)Nc2cc3c4c(c2)CC(=O)N4CCC3)cc1C,nt,nt,nt,1.4,7,
COc1ccccc1OCC(=O)Sc1ccc(C)cc1,-15,-4%,-44,6.3,4,
O=c1oc2ccccc2cc1-c1cn2ccccc2n1,-26,6%,nt,nt,6,
Cc1cc(C)cc(NC(=S)NCc2ccc3[nH]c4c(c3c2)CCCC4)c1,-25,nt,-25,-0.5,3,
CCCc1cc(-c2nc(-c3ccc(Br)cc3)cs2)ccn1,-7,5.7µM*,5,1.1,98,
CC(C)(C)NC(=O)NC(=O)Cn1ccsc1=N,-6,4%,-10,-2.2,-2,
O=C1CC(c2ccccc2)=NN1c1ccc([N+](=O)[O-])cc1,-31,2%,nt,55*,-8,
COc1ccccc1NC(=O)C1CCCN1C(=O)Nc1ccc(F)cc1 (stereo not drawn),nt,nt,nt,-1.0,1,
COc1ccc(OC)c(C(O)CNC(=O)CN)c1 (stereo not drawn),nt,nt,nt,-0.6,-3,
O=C(CSc1nnc(CNC(=O)c2ccc(F)cc2)o1)NCc1ccccc1,nt,nt,nt,2.5,?,
COc1ccc(-c2cc3nc(C)cc(-c4ccc(OC)cc4)n3n2)cc1,nt,nt,nt,-2.0,6,
CCOc1ccc(C(=O)Nc2cccc(-c3nc4cccnc4o3)c2)cc1Cl,2,6%,6,1.8,-3,
COc1ccc2[nH]c3nc(SCC(=O)Nc4cccc(NC(C)=O)c4)nnc3c2c1,nt,nt,nt,-5.6,3,
COCCCN(CC(=O)Nc1ccc(N2CCOCC2)cc1)S(=O)(=O)c1ccc(C)cc1,7,7%,nt,-2.8,-12,
CCc1ccc(/C=N/NC(=O)c2cc(-c3cccc([N+](=O)[O-])c3)n[nH]2)cc1,nt,0%,nt,nt,-1,
O=C(NCCCc1ccccc1)C1CC1,nt,nt,nt,0.9,-2,

# Entries listed so far that contain a nitro group on carbon (3):
SMILES,Arbovirus inh,Mtb H37Rv,YopH inh,RecA intein inh,Mtb betalactam,others
N/C(=N\OC(=O)c1ccccc1F)c1cccc([N+](=O)[O-])c1,nt,nt,nt,2.8,56,
O=C1CC(c2ccccc2)=NN1c1ccc([N+](=O)[O-])cc1,-31,2%,nt,55*,-8,
CCc1ccc(/C=N/NC(=O)c2cc(-c3cccc([N+](=O)[O-])c3)n[nH]2)cc1,nt,0%,nt,nt,-1,

# (further entries)
SMILES,Arbovirus inh,Mtb H37Rv,YopH inh,RecA intein inh,Mtb betalactam,others
CC(C)(C)C1CCc2onc(C(=O)Nc3cccc(O)c3)c2C1 (stereo not drawn),-1,30%,-31,-1.4,8,
N#Cc1c2n(c3c(-c4ccccc4)ncnc13)CCC2,6,-1%,-36,-2.7,2,Arbovirus inh repeat=4
COc1ccccc1Oc1coc2c(CN3CCN(C)CC3)c(O)ccc2c1=O,2,-5%,-9,-3.3,5,
COc1ccc2c(Cn3cnc4cc([N+](=O)[O-])ccc4c3=O)cc(=O)oc2c1,nt,nt,nt,-0.9,-1,
CSc1nnc(-c2ccc(NC(=O)CCc3ccccc3)cc2)n1C,-1,nt,-14,0.0,-17,
COc1ccc(C2C(C(=O)N3CCN(c4ccccc4)CC3)c3ccccc3C(=O)N2C)cc1 (stereo not drawn),4,4%,-4,8.5,-12,Arbovirus inh repeat=0
O=C(CSc1ccccc1)NCc1cccnc1,-1,nt,-54,0.9,-1,Arbovirus inh repeat=2
COc1ccc(CNC(=O)CSc2cc(=O)n(C)c3ccccc23)cc1,-9,-12%,nt,0.7,2,
CC(CN1CCOCC1)(NS(=O)(=O)c1ccccc1)c1ccccc1 (stereo not drawn),3,-7%,-1,2.3,1,
OC(C#CCN1CCOCC1)(c1ccccc1)C1CC1 (stereo not drawn),6,-6%,-34,-0.4,-3,
CCCNC(=S)Nc1ccc(Cl)cc1C,-3,-1%,-3,-0.7,2,
O=C(Nc1cccc(C(F)(F)F)c1)c1cccnc1NCCO,nt,nt,nt,-1.9,-1,
Cc1ccccc1CS(=O)(=O)Cc1ccc(C(=O)NCc2ccco2)o1,8,nt,-34,1.3,3,
COC(=O)c1sccc1NC(=O)CCC1CCCCC1,0,3%,-14,7.3,2,
CCOc1ccc(NC(=O)CSc2nc3c([nH]c4ccccc43)c(=O)n2C)cc1,1,10%,nt,-0.5,6,
C=C1CCN([C@@H](CC(C)C)C(=O)O)S(=O)(=O)c2ccccc21,nt,4%,nt,-4.2,-1,
CCC(C)Nc1nc2c(c(=O)n(C)c(=O)n2C)n1Cc1ccc(Cl)cc1 (stereo not drawn),-1,10%,nt,5.3,-1,
CC(C)n1nc(C(=O)OCn2nnc3ccccc3c2=O)c2ccccc2c1=O,3,4%,-22,1.1,-1,
CCOC(=O)N1CCC(N2CCCC(C(=O)c3ccc4cc(OC)ccc4c3)C2)CC1 (stereo not drawn),-10,8.9µM*,nt,4.3,99,
O=C(Cn1nc(C(=O)O)c2ccccc2c1=O)c1cc(F)ccc1F,nt,15%,nt,-1.8,-5,

# Gathered by group, those above containing a tert-butyl group.
SMILES,Arbovirus inh,Mtb H37Rv,YopH inh,RecA intein inh,Mtb betalactam,others
CCCCOc1ccc(N(CC(=O)NC(C)(C)C)C(=O)CCC(=O)Nc2nccs2)cc1,nt,nt,nt,-1.0,2,
CC(C)(C)NC(=O)NC(=O)Cn1ccsc1=N,-6,4%,-10,-2.2,-2,
CC(C)(C)C1CCc2onc(C(=O)Nc3cccc(O)c3)c2C1 (stereo not drawn),-1,30%,-31,-1.4,8,
